Source: PubChem (National Center for Advancing Translational Sciences (NCATS))
PINK1 modulator: PINK1 expression modulation | PINK1 immunofluorescence, high-content cytometry, 24 h | Potency, µM (titrated, usually from 76.6 µM), for inactives: top-dose activation (PINK1 increase), actives largely listed as activators | 410,000 compounds, 0.2% hits | AID 624263; active = well fitted activation curve with a large enough effect; inconclusive = small, poorly fitted or top-dose-only effect; inactive = flat fitted curve, though single readings scatter; cell line not stated here;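 further: potency means the concentration at half of the fitted maximal effect; % of control where 0% means no effect; nearly all actives have a fitted effect of over 65% in size; a mitochondrial uncoupler was the plate control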
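A stable cell line was treated with compounds at 5 concentrations for 24 hours, with CCCP as control. PINK1 levels and mitochondrial localization were measured by immunofluorescence with mitochondrial, cell and nuclear markers after fixation, read by laser-scanning cytometry.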
ClpP mod: qHTS Assay for Activators of ClpP; purified B. subtilis ClpP, FRET peptide cleavage, 20 min; Potency, µM (top dose mostly 57.5 µM), for the others: at the top dose activity change, negative = active; 340,000 compounds, 1.9% hits; AID 651965, 2013; active = well fitted falling curve with a large enough effect; inconclusive = small, poorly fitted or top-dose-only effect; inactive = no such curve, though single readings can be large or run the other way; further: potency means the concentration at half of the fitted maximal effect; the source files actives as falling curves though it sought activators and does not explain the sign; nearly all actives have a fitted effect of over 65% in size; many hits overshoot -100%
Target sequence (P80244 whole entry, looked up): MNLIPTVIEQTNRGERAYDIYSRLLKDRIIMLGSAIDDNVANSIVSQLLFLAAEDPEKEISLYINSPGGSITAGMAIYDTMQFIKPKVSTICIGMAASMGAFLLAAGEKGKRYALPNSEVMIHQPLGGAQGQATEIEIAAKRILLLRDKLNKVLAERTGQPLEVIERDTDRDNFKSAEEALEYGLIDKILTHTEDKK
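ClpP 10 microg/mL final, pH 8 Tris/KCl buffer with BSA, glycerol, Tween-20; compound pinned in; FRET-FV substrate; RT 20 min; Ex320/Em430; ΔFRET vs ADEP 5.8 microM, DMSO, no enzyme.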
TRPML1 inh: inhibitors of human TRPML1 channel. 390,000 compounds, 0.02% hits. activity change, negative = inhibition, % (concentration not given with the values). TRPML1-inducible cells, Ca2+ dye fluorescence, FDSS; hits give low values; inhibition of EC80 agonist-evoked calcium signal; in the data active means activity change below about -50%; inconclusive means about -30% to -50%; inactive means above about -30%;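 further: stimulus is agonist 54-4 at its EC80 concentration; on the % scale 0 is the no-effect control and ±100 the full control effect; the text of the record puts the active cut at -80%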
Target sequence (Q9GZU1 whole entry, looked up): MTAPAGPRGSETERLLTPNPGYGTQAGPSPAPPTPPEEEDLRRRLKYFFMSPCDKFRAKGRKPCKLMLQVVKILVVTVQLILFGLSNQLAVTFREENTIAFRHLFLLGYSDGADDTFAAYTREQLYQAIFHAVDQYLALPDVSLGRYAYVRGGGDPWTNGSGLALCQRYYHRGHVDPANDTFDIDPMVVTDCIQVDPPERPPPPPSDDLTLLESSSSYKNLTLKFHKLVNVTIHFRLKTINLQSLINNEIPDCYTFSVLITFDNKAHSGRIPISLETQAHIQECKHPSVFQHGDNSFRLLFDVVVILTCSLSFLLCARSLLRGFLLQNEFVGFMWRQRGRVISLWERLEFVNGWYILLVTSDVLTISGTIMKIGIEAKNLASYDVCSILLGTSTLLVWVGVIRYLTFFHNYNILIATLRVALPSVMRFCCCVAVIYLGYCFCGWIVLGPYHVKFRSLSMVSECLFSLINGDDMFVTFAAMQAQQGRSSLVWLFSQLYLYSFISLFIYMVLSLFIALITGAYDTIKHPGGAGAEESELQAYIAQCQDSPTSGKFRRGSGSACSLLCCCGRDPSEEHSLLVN
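Tet-induced TRPML1-DL cells loaded with Ca8 no-wash calcium dye were read kinetically on FDSS. Compound addition was followed by EC80 agonist 54-4 (4 uM final); inhibition was read over 110 s.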
Menin-MLL FL inh: menin-MLL binding inhibition, fluorescein peptide. Fluorescence polarization, fluorescein-MLL peptide displacement from menin. 290,000 tested, under 10 active. AID 1766. FP activity change, % at 61.4 µM; inconclusive = falling polarisation curve, or a change in total fluorescence; inactive = total fluorescence flat and polarisation flat or rising; no compound was filed as active; the % refers to the polarisation; negative = inhibition;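 further: % of control where 0% means no effect; inhibitors lower the polarisation; unlabelled MLL peptide was the positive control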
Sfp inh: Sfp phosphopantetheinyl transferase inhibition | Q9F4F7 | Biochemical Sfp PPTase activity, qHTS | Potency, µM, inactives show max response, negative = inhibition, actives largely listed as inhibitors | 310,000 compounds, 3.5% hits | AID 1490; active means well fitted inhibition curve with a large enough effect; inconclusive means small, poorly fitted or top-dose-only effect, or another doubt; inactive means no such curve, though single readings can be large or run the other way;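 further: the enzyme is Sfp with the accession as filed and its product quenches rhodamine fluorescence; potency means the concentration at half of the fitted maximal effect; 0% = enzyme reaction without inhibitor and -100% = no enzyme wells; top concentration of the series not given in the record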
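Step 1, compound plus 15 nM Sfp-PPTase, 15 min, room temperature. Step 2, add rhodamine-CoA (5 uM) and BHQ-2-YbbR (12.5 uM). Step 3, read 525/598 nm fluorescence at 0 and 30 min.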
TRPML1 agonist: agonists of human TRPML1 channel. TRPML1-expressing cells, Ca2+ dye fluorescence, FDSS; host cell line not named in the record; reference of the full effect not given here. AID 624414. 410,000 compounds, 0.12% hits. activation, % (test concentration not listed); in the data active = activation above about 50%; inconclusive = about 30% to 50%; inactive = below about 30%; further: 0% is about no effect; the text of the record puts the active cut at 80%
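Tetracycline-induced TRPML1-DL cells are seeded and incubated overnight before loading with a no-wash Ca2+ dye and quencher. Agonist activity is taken from the 110 s fluorescence read following compound pin-transfer on an FDSS, before EC80 54-4 challenge.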
TRPV1 potentiator: potentiators of human vanilloid receptor 1 (TRPV1); 320,000 compounds, 0.02% hits; potentiation, % at 8.33 µM; TRPV1-expressing cells, Fluo-8 calcium influx, capsaicin EC20 potentiation; host cell line not named in the record; control for the full effect not named in the record; Q8NER1; active means potentiation above 80%; inconclusive means 30% to 80%; inactive means below 30%; further: 0% is about no effect
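Fluo-8 calcium influx in TRPV1-expressing cells, kinetic read (ex 480/em 520 nm). Compound added and read 3 min for agonist activity, followed by capsaicin at EC20 final and 2 min further read for enhancement.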
* = called active by the depositor; ? = inconclusive; . = not tested or not shown.

(1) CC1CCN(S(=O)(=O)c2cc(C(=O)Nc3ccccn3)ccc2Br)CC1
(2) Cc1cc(-c2nnc(CCC(=O)N(C)CCc3ccccc3)o2)no1
(3) COc1ccccc1OC(=O)c1ccc(SC)cc1OC
(4) COc1cc(CNCCNC(=O)c2nonc2N)ccc1OCc1ccc(Cl)cc1
(5) CCOc1ccccc1NS(=O)(=O)c1c[nH]c(C(=O)OC)c1
(6) CN(Cc1cn(-c2ccccc2)nc1-c1ccc(Cl)cc1)C(=O)CCC(=O)O
screen / no.	1	2	3	4	5	6
PINK1 modulator	5.1%	-1.1%	-0.4%	-1.1%	9.4%	0.0%
ClpP mod	-0.5%	-1.4%	-2.0%	-0.2%	-1.7%	-14.3%
TRPML1 inh	37.4	-14.3	-1.1	-18.4	-15.6	3.7
Menin-MLL FL inh	.	-0.7	1.6	0.4	3.1	5.9
Sfp inh	.	13.5%	-10.4%	-4.5%	4.6%	-5.5%
TRPML1 agonist	-0.1	0.8	-0.1	-0.8	-0.3	-0.3
TRPV1 potentiator	-6.1	5.0	-2.4	5.4	5.8	8.0

(7) CCCCCC[n+]1ccccc1/C=C/c1ccc(N(C)C)cc1
(8) CCCCC(=O)OCC(=O)c1[nH]c(C)c(C(C)=O)c1C
(9) Cc1nnc(NC(=O)c2ccccc2)s1
(10) O=C(NCc1ccncc1)c1cc(C(=O)C2CCCCC2)c[nH]1
(11) COc1cc2c(cc1OC)C1=C(C#N)CC/C(=N\S(=O)(=O)c3ccccc3)N1CC2
(12) O=C(/C=C/c1ccc2c(c1)OCO2)N1CCN(c2n[nH]c(=O)[nH]c2=O)CC1
screen / no.	7	8	9	10	11	12
PINK1 modulator	?	-1.0%	3.6%	1.2%	-0.6%	0.4%
ClpP mod	1.3%	0.1%	1.5%	.	1.5%	.
TRPML1 inh	-0.8	56.2	-12.1	6.1	17.2	8.3
Menin-MLL FL inh	.	-1.9	.	6.7	4.6	-2.9
Sfp inh	.	12.8%	.	-7.9%	-11.8%	-4.5%
TRPML1 agonist	69.0*	0.0	-0.8	0.5	-0.2	0.6
TRPV1 potentiator	.	-18.9	.	-20.6	.	-5.3

(13) COCCCNC(=O)c1cnc2sc(N3CCCCC3)nn2c1=O
(14) CN1CCCN(C(=O)c2cccc3ccccc23)CC1
(15) CCSc1ccc([C@@H]2[C@H]3C(=O)N(CC)C(=O)[C@H]3[C@]3(C(=O)OC)CCCCN23)cc1OC
(16) C/C(=N\NC(=S)NC1CCCCC1)c1ccccc1
(17) O=C1CN(C(=O)c2ccccc2)C(c2ccccc2)c2cc(Cl)ccc2N1 (stereo not drawn)
(18) Cn1c(=O)[nH]c2cc(-c3noc(-c4cccc(Cl)c4)n3)ccc21
screen / no.	13	14	15	16	17	18
PINK1 modulator	1.3%	-1.0%	4.9%	7.2%	2.9%	-2.5%
ClpP mod	4.2%	0.9%	1.5%	1.2%	.	-4.5%
TRPML1 inh	10.3	-9.3	45.2	13.1	2.9	-15.9
Menin-MLL FL inh	.	0.7	.	2.7	-7.6	.
Sfp inh	.	15.2%	.	17.4%	2.4%	.
TRPML1 agonist	-1.1	-0.1	1.2	1.2	0.8	1.2
TRPV1 potentiator	.	23.1	.	-8.9	5.4	.

(19) Cc1cccc(OCCOC(=O)C2CCN(S(=O)(=O)c3cccs3)CC2)c1
(20) Cc1cccc(N2CCN(C(=O)CC(NC(=O)c3ccccc3)c3ccccc3)CC2C)c1 (stereo not drawn)
(21) COC(=O)[C@H](Cc1ccc(O)cc1)NCCCn1cnc(C(=O)Nc2ccc(C)c(C)c2)n1
(22) CN1CCN(C(=O)c2cc3c(c(-c4cccc(C#CC(C)(C)O)c4)n2)[C@@H](CCO)N(S(=O)C(C)(C)C)C3)CC1 (stereo partly drawn)
(23) O=C(NN1C(=O)c2ccccc2NC1c1ccc([N+](=O)[O-])o1)c1ccc([N+](=O)[O-])cc1 (stereo not drawn)
(24) CC(C)NC(=O)OCc1c(COC(=O)NC(C)C)c([N+](=O)[O-])n2c1CCC2
screen / no.	19	20	21	22	23	24
PINK1 modulator	-1.0%	0.0%	1.8%	-0.5%	-1.7%	2.6%
ClpP mod	-0.9%	0.7%	1.0%	-4.0%	.	1.6%
TRPML1 inh	69.3	33.3	14.4	.	38.3	.
Menin-MLL FL inh	-2.2	8.8	.	.	-2.6	.
Sfp inh	-14.3%	10.5%	.	.	15.8%	.
TRPML1 agonist	3.2	-0.4	-0.3	0.9	1.8	-1.1
TRPV1 potentiator	?	2.4	.	.	16.0	.

(25) S=c1[nH]nc(-c2ccccn2)n1/N=C/c1ccccc1
(26) COc1cccc(Cn2c(=O)c(-c3cc(F)cc(F)c3)nc3cnc(N4CCN(C)CC4)nc32)c1
(27) O=C(Nc1ccc2c(c1)CCC2)c1cccc(F)c1
(28) CC(=O)CSc1nnc(-c2cnccn2)n1-c1ccccc1
(29) CC1(Oc2cccc(C#N)c2)CCN(Cc2ccccc2OC(F)F)C1 (stereo not drawn)
(30) O=[N+]([O-])c1cccc2cnccc12
screen / no.	25	26	27	28	29	30
PINK1 modulator	-1.3%	0.9%	2.0%	-1.0%	0.7%	-2.3%
ClpP mod	-2.7%	.	1.3%	1.2%	-1.7%	.
TRPML1 inh	0.1	.	10.3	-4.8	.	9.3
Menin-MLL FL inh	.	2.5	10.1	3.7	.	.
Sfp inh	39.8µM*	14.1%	?	0.7%	.	.
TRPML1 agonist	0.0	.	-0.1	0.7	-0.6	2.5
TRPV1 potentiator	-5.6	.	-17.0	-6.9	.	.

(31) CSc1ccc(CNC(=O)c2ccc3c(c2)N(C)C(=O)C2CCCCN32)cc1 (stereo not drawn)
(32) Cc1nc(-c2ccccc2)nc2n[nH]c(N)c12
(33) COc1ccc(S(=O)(=O)Nc2cccc3c2O[C@H](CN(C)CC2CC2)[C@@H](C)CN([C@H](C)CO)C3=O)cc1
(34) Cc1ccc(-n2nnnc2CNC(=O)c2ccccc2S(C)(=O)=O)cc1C
(35) COc1cccc(Nc2nc3ccccc3n3cnnc23)c1
(36) O=[N+]([O-])c1ccc(Oc2cccc(C(F)(F)F)c2)nc1
screen / no.	31	32	33	34	35	36
PINK1 modulator	6.3%	-1.0%	0.3%	0.7%	-1.0%	-2.0%
ClpP mod	-4.8%	.	-2.0%	0.6%	-6.2%	-1.6%
TRPML1 inh	-8.0	-9.6	-6.9	35.9	-3.2	25.4
Menin-MLL FL inh	.	.	.	.	4.6	1.4
Sfp inh	.	.	.	.	5.7%	12.8%
TRPML1 agonist	1.5	0.2	-0.2	-0.1	-1.0	1.3
TRPV1 potentiator	.	.	.	.	.	-8.5

(37) CC(NC(=O)C1CCCO1)c1ccccc1 (stereo not drawn)
(38) O=C(Nc1ccc(C(F)(F)F)cc1)C1CCC(CNS(=O)(=O)c2cccc3nsnc23)CC1 (stereo not drawn)
(39) C#CCOCCOCCOCCNc1nc(N2CCOCC2)nc(N2CCN(C(=O)[C@H](Cc3cc4ccccc4[nH]3)n3cc([C@@H](N)C(C)CC)nn3)CC2)n1 (stereo partly drawn)
(40) O=C1CC(=C(c2ccccc2)c2ccccc2)C(=O)N1CCCCN1CCN(c2ccccc2)CC1
(41) Cc1cc(NC(=O)Cn2nc(C)c([N+](=O)[O-])c2C)no1
(42) Cc1c(NC(=O)C(C)OC(=O)c2nc(Cl)ccc2Cl)c(=O)n(-c2ccccc2)n1C (stereo not drawn)
screen / no.	37	38	39	40	41	42
PINK1 modulator	0.7%	7.4%	1.8%	-1.2%	0.8%	-1.7%
ClpP mod	-4.1%	-2.0%	-4.5%	1.3%	0.5%	-0.7%
TRPML1 inh	-6.9	-18.1	2.8	-11.0	36.1	-10.5
Menin-MLL FL inh	-1.5	.	0.4	3.8	9.5	.
Sfp inh	8.9%	.	-4.2%	?	26.3%	9.9%
TRPML1 agonist	-0.2	-1.3	0.7	-0.3	-0.7	0.4
TRPV1 potentiator	8.8	.	13.3	?	-4.4	-5.8

(43) CCOC(=O)c1c(C)[nH]c(C(=O)N2CCN(C(=O)OCC)CC2)c1C
(44) c1ccc(Cn2nnc3c(N4CCCCC4)ncnc32)cc1
(45) COc1ccc(C2=NS(=O)(=O)N(C)C(C(=O)NCc3ccc4c(c3)OCO4)=C2)cc1OC
(46) CCCN1CCN(CCCNC(=O)Cn2ncc3c4ccccc4n(C)c3c2=O)CC1
(47) COc1cccc2cc(C(=O)NNC(=O)c3ccc(Br)cc3)c(=O)oc12
(48) COc1ccc(OC)c(N=c2oc3c(OC)cccc3cc2C(=O)NCc2ccco2)c1
screen / no.	43	44	45	46	47	48
PINK1 modulator	-0.4%	0.9%	3.4%	0.1%	2.6%	.
ClpP mod	.	0.6%	-0.8%	3.6%	.	-0.2%
TRPML1 inh	6.3	.	6.3	0.4	3.9	-9.6
Menin-MLL FL inh	-0.8	.	-4.2	-4.9	-0.2	-0.7
Sfp inh	12.6%	.	5.5%	2.7%	5.2%	8.8%
TRPML1 agonist	-0.5	-1.0	-0.1	-0.4	-0.4	-0.4
TRPV1 potentiator	-9.9	.	-2.9	-7.4	25.7	-2.6
